From PubChem
PKD1 kinase inh = blocks activity of human protein kinase D1 | Q15139 | PKD1 kinase fluorescence polarization assay | inhibition, %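 (about 10 µM by stock and volumes)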 | actives 0.056% (n = 200,000);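 active = inhibition of 50% or more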;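 note: controls were vehicle for no effect and a reference inhibitor for full effect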
Target sequence (Q15139 whole entry, looked up): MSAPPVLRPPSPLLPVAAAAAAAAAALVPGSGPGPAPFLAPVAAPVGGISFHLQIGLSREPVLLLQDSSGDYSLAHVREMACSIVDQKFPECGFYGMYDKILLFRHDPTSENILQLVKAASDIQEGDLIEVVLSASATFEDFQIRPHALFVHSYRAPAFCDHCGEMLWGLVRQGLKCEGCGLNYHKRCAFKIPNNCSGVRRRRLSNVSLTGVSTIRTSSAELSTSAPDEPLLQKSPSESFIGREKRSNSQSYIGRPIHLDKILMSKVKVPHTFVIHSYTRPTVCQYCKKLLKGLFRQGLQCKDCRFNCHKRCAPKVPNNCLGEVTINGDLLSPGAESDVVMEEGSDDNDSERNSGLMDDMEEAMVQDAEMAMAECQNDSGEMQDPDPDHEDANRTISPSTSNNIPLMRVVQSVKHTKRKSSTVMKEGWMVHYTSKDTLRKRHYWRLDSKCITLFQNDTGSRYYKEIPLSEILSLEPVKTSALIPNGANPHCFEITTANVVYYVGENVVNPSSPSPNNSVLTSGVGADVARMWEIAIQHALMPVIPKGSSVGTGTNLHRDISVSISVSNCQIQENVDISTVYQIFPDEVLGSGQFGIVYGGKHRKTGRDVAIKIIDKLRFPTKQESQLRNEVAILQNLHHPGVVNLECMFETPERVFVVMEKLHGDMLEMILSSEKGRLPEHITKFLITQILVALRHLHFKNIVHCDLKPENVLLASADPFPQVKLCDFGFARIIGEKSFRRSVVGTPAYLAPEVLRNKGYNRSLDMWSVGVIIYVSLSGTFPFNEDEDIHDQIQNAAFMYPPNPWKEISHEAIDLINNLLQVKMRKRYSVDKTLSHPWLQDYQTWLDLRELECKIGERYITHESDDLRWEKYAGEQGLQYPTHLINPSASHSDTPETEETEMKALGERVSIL
GALR2 ag = activates the human galanin receptor 2; O43603; GALR2-expressing cells, agonist activation read-out; activation, %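 (tested at 5 µM)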; actives 0.48% (n = 140,000); AID 803;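 active = above mean plus 3 SD of all compounds, about 5% in these data, not always enough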;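 note: 0% = vehicle buffer wells and 100% = reference agonist at full effect; tested in CHO reporter cells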
Insulin prom inh = TRM-6 insulin promoter activity inhibition. inhibition, % at 2 µM. actives 0.9% (n = 130,000). AID 1273. TRM-6 cells (human fetal islet line), insulin promoter-eGFP reporter, imaging; reporter expression induced with tamoxifen;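 active = inhibition above the mean plus 3 SD, with well images judged a real hit on visual review, cut at about 60% in these data, passing the limit was not always enough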
HSV replic up = increases HSV replication in cells | HSV replication augmentation in cells, fold increase | maximum fold increase | actives 0.005% (n = 220,000) | AID 1956;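 active = peak rise of 1.5-fold or more in the series; tested in PC3 cells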;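 note: first round at 10 µM; read as green reporter fluorescence; hits show the peak of a series up to 25 µM; 1 = signal of infected wells without compound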
RGS16-Gao HTS = regulators of human RGS16-Galphao interaction | O15492+P09471 | bead-based flow cytometry RGS16-Galphao binding, fluorescence; actives lie on both sides | binding response (% of control), % at 10 µM | actives 0.38% (n = 220,000);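 active = below 25% or above 175%, edge rows of some plates excepted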;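 note: Galphao activated by GDP with aluminum fluoride before binding; 100% = wells without compound and 0% = beads without RGS; some results beyond the cut were filed as inactive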
Insulin prom inh cell count = further read-out of Insulin prom inh, marked with its call; normalized cell count, %; measured here: cell count, toxicity; reference of the scale not given here;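 cells exposed to compound for 48 h; stained nuclei by imaging scaled within each plate; lower means fewer cells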
HSV replic up primary fold = second read-out of HSV replic up, no call of its own (marks repeat the call); fold increase; compound at 10 µM; measured here: primary screen fold increase 10 uM; tested in PC3 cells;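 GFP signal in the first replicate; 1 = infected wells without compound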
* marks the source's active call; other numbers are inactive results; i = inactive; · = no result given.

Second line of a record – PKD1 kinase inh, GALR2 ag, Insulin prom inh, Insulin prom inh cell count, HSV replic up, HSV replic up primary fold, RGS16-Gao HTS
COc1ccc(S(=O)(=O)N2CCC(C(=O)Nc3ccc4c(c3)OCCO4)CC2)cc1OC
 : -7, -0.4, 0, 122, i, 0.79, 98
COc1cc2c(c3oc(-c4ccccc4)cc(=O)c13)C=CC(C)(C)O2
 : -7, ·, ·, ·, i, 0.84, 102
COc1nnc(-c2ccc(N3CCOCC3)c(NC(=O)c3ccc(C)cc3)c2)c2ccccc12
 : -16, 0.0, -3, 125, i, 0.91, 105
O=C(Oc1ccc(O)cc1)C12CC3CC(CC(C3)C1)C2
 : -11, ·, ·, ·, i, 1, 105
COC(=O)C(NC(=O)CNS(=O)(=O)c1ccc(Br)cc1)c1ccccc1 (centres undefined)
 : 0, ·, -275, 70, i, 0.93, 96
CN(Cc1ccccc1)C(=O)CC(c1ccccc1)c1cc(Cl)ccc1O (centres undefined)
 : -4, -1.1, ·, ·, ·, ·, 63
CCCC(=O)Nc1nc2nc(-c3ccccc3)cc(=O)n2[nH]1
 : -7, -1.7, -19, 189, i, 0.92, 104
O=S(=O)(NC1CCCCC1)c1ccc(Cl)s1
 : -7, -1.2, -13, 123, i, 1, 103
COC(=O)C1=C(C)NC(=O)NC1c1ccco1 (centres undefined)
 : 0, ·, ·, ·, i, 0.96, 99
Cc1ccc(C)c2nc(Cl)c(C3NC(=O)c4ccccc4N3)cc12 (centres undefined)
 : -1, ·, 12, 119, i, 0.69, 99
c1ccc(Cn2nnc3c(N4CCCC4)ncnc32)cc1
 : 2, -0.9, -50, 99, i, 1.2, 104
CCOc1[nH]n(-c2ccccc2)c(=O)c1C=NCc1ccncc1
 : -1, ·, ·, ·, i, 1, 98
CCN(CC)C(=O)/C(=C\c1cccc([N+](=O)[O-])c1)NC(=O)c1ccco1
 : -2, -0.3, -39, 130, i, 1.1, 93
CCOc1ccc2nc(NC3=NCN(CC4CCCO4)CN3)nc(C)c2c1 (centres undefined)
 : -14, -1.6, 11, 56, ·, ·, ·
CN1C/C(=N\S(=O)(=O)c2ccccc2)N(C)C1=O
 : -9, -2.6, -21, 110, i, 0.95, 102
O=C(COc1ccc(F)cc1Br)N1CCc2ccccc21
 : 5, 1.6, 28, 76, i, 0.91, 109
CC1=NN(c2ccc([N+](=O)[O-])cc2)C(c2ccccc2)C1 (centres undefined)
 : -6, ·, 21, 130, i, 1.1, 103
CN(C)c1ccc(P(=O)(CC(=O)N/N=C/c2ccc(C#N)cc2)OCCCl)cc1 (centres undefined)
 : -6, ·, ·, ·, i, 0.87, 99
COc1ccc2nc(N3C(=O)CC(Cc4cc(C)cc(C)c4)C3=O)sc2c1 (centres undefined)
 : 4, -1.4, 39, 92, ·, ·, 100
C#CCOCCOCCOCCNc1nc(N2CCOCC2)nc(N2CCN(C(=O)[C@H](Cc3ccc(O)cc3)n3cc([C@@H](N)C(C)CC)nn3)CC2)n1 (some centres undefined)
 : 10, ·, ·, ·, i, 0.68, 99
Cc1ccc2[nH]c(=O)c(CN(C(=O)c3cccs3)c3ccccc3)cc2c1
 : -1, 0.3, ·, ·, i, 0.8, 100
COC(=O)Cc1c(O)ccn(Cc2ccc(F)cc2)c1=O
 : -2, -3.8, ·, ·, i, 0.98, 106
COc1ccc(Cl)cc1C(=O)N1CCN=C1SC
 : 7, -3.0, -210, 62, i, 1.1, 105
Cc1c(NC(=S)NC(=O)c2cc3ccccc3o2)c(=O)n(-c2ccccc2)n1C
 : -10, -1.1, -37, 73, i, 0.98, 101
Cn1cccc1Cc1nnc(SCC(N)=O)n1CCc1ccccc1
 : -1, -0.8, 14, 87, i, 1.1, 83
N/N=c1\sc2ccccc2n1-c1ccccc1
 : -2, -0.1, 21, 57, i, 0.88, 104
O=C(COC(=O)/C=C/c1ccccc1)NCc1ccc(Cl)cc1
 : 7, -0.5, 6, 112, i, 1, 108
O=C(Nc1nnc(-c2ccccc2Cl)o1)c1cccnc1
 : -5, -0.3, -90, 132, i, 1.1, 52
CCN(CC(=O)Nc1cc(OC)ccc1OC)Cc1nc2ccccc2c(=O)[nH]1
 : -11, ·, -87, 75, i, 0.96, 72
O=C(c1ccc(=O)[nH]n1)N1CCc2ccccc2C1
 : ·, ·, ·, ·, i, 0.98, 135
CCNc1nc(NCC)n2c(SCC(=O)Nc3ccccc3[N+](=O)[O-])nnc2n1
 : -12, -1.1, ·, ·, i, 0.91, 87
O=C(CSc1ncnc2c1cnn2Cc1ccccc1)Nc1ccc2c(c1)OCCO2
 : -8, -2.8, 19, 158, i, 0.93, 101
Cc1ccc2nsnc2c1S(=O)(=O)N1CCCC1C(=O)O (centres undefined)
 : -2, ·, ·, ·, i, 1.1, 69
O=C(Cc1ccc2c(c1)OCCO2)N1CCN(S(=O)(=O)c2ccccc2C(F)(F)F)CC1
 : 2, -0.1, 11, 91, i, 0.98, 155
O=C(N/N=C/c1coc2ccccc2c1=O)c1ccccc1
 : -6, ·, ·, ·, i, 0.88, 97
C=CCn1c(N)c(C(=O)N2CCN(C)CC2)sc1=S
 : 1, -0.9, -43, 131, i, 1, 99
O=C(O)c1cc([N+](=O)[O-])ccc1NCCO
 : -4, 0.4, 0, 79, i, 1, 109
Nc1no[n+]([O-])c1-c1ccccc1
 : 1, ·, 7, 101, i, 0.94, 101
CC(=O)Nc1ccc(C=C(C(C)=O)C(C)=O)cc1
 : ·, ·, ·, ·, i, 0.75, 104
CCN(CC)CCNC(=O)c1ccc2c(c1)ncn2C1CCCCC1
 : -3, -1.5, 15, 187, i, 1.1, 106
COc1ccc(OC)c(NC(=O)c2cc3ccccc3o2)c1
 : -4, -2.7, 13, 121, i, 1, 101
OCCC1CN(Cc2ccc3nsnc3c2)CCN1CCc1ccccc1 (centres undefined)
 : 6, ·, ·, ·, i, 1, 104
O=C(c1ccco1)N1CCN(C(=O)C2(S(=O)(=O)c3ccc(Cl)cc3)CC2)CC1
 : -4, -3.6, -31, 38, i, 0.9, 102
CCCCNC(=O)CSc1nc2ccccc2c(=O)n1CC1COc2ccccc2O1 (centres undefined)
 : 1, -2.6, -40, 172, i, 0.88, 103
Cc1sc2c(c1C)c(=O)n(-c1ccccc1)c1nncn21
 : -3, -0.9, ·, ·, i, 0.8, 112
CCOc1nc(-c2ccccc2)ccc1-c1noc(COc2ccccc2)n1
 : 3, -0.7, -23, 73, i, 1, 100
O=c1/c(=C/c2ccccn2)sc2nc3ccccc3n12
 : 19, -2.0, -64, 38, ·, ·, 83
COc1ccc(C)cc1S(=O)(=O)Nc1cccc(Cl)c1
 : 0, -1.8, 18, 112, i, 0.83, 100
CCC(c1nnnn1C1CCCC1)N1CCN(c2ccccc2F)CC1 (centres undefined)
 : 0, -0.2, ·, ·, i, 0.91, 103
COc1ccc(Oc2nnc(-c3ccc(C)cc3)c3ccccc23)cc1
 : 0, -3.6, ·, ·, i, 1, 104
O=C(NCc1cccnc1)c1c[nH]c2cc3c(cc2c1=O)OCCO3
 : 6, -2.1, ·, ·, i, 0.99, 75
Cn1c(=O)[nH]c2sc3c(c2c1=O)CC(C)(C)OC3
 : 3, -2.3, -72, 162, i, 0.93, 106
COc1cc(Cl)c(C)cc1NC(=O)COC(=O)/C=C/c1c(C)nn(C2CCS(=O)(=O)C2)c1Cl (centres undefined)
 : -8, -1.1, 0, 112, i, 1.1, 101
CC(C)(C)C(=O)Nc1sc2c(c1-c1nc3ccccc3[nH]1)CCCC2
 : -9, -0.6, 10, 135, i, 0.78, 100
Cc1cc(/C=C2\C(=N)N3N=C(S(C)(=O)=O)SC3=NC2=O)c(C)n1Cc1ccccc1
 : -1, ·, ·, ·, i, 1, 80
CC(C)(C)c1nn(-c2ccccc2)c2nc(Cl)c(C=O)cc12
 : 6, -2.5, ·, ·, ·, ·, 101
O=C(CN1C(=O)NC2(CCCC2)C1=O)Nc1nc(-c2ccc(F)cc2)cs1
 : 1, -3.1, ·, ·, i, 0.91, 95
CC(=O)c1cc(Cc2csc(C(C)=O)c2)cs1
 : -8, -0.4, ·, ·, i, 0.75, ·
O=C(c1ccccc1)N(Cc1ccccc1)c1ccccn1
 : 5, -0.6, -15, 49, i, 1.2, 108
CS(=O)(=O)Nc1ccc(C2=NN(C(=O)c3ccco3)C(c3ccc(F)cc3)C2)cc1 (centres undefined)
 : -1, ·, 9, 126, i, 0.9, 99

Nothing new here: entries from further up.
Second line of a record – PKD1 kinase inh, GALR2 ag, Insulin prom inh, Insulin prom inh cell count, HSV replic up, HSV replic up primary fold, RGS16-Gao HTS
Cc1cc(/C=C2\C(=N)N3N=C(S(C)(=O)=O)SC3=NC2=O)c(C)n1Cc1ccccc1
 : -1, ·, ·, ·, i, 1, 80
CC(C)(C)c1nn(-c2ccccc2)c2nc(Cl)c(C=O)cc12
 : 6, -2.5, ·, ·, ·, ·, 101
O=C(CN1C(=O)NC2(CCCC2)C1=O)Nc1nc(-c2ccc(F)cc2)cs1
 : 1, -3.1, ·, ·, i, 0.91, 95
CC(=O)c1cc(Cc2csc(C(C)=O)c2)cs1
 : -8, -0.4, ·, ·, i, 0.75, ·
O=C(c1ccccc1)N(Cc1ccccc1)c1ccccn1
 : 5, -0.6, -15, 49, i, 1.2, 108
CS(=O)(=O)Nc1ccc(C2=NN(C(=O)c3ccco3)C(c3ccc(F)cc3)C2)cc1 (centres undefined)
 : -1, ·, 9, 126, i, 0.9, 99

Ordered by value in HSV replic up primary fold (highest first): some entries from above.
mol	PKD1 kinase inh	GALR2 ag	HSV replic up	HSV replic up primary fold	RGS16-Gao HTS
O=C(N/N=C/c1coc2ccccc2c1=O)c1ccccc1	-6	·	i	0.88	97
Cc1sc2c(c1C)c(=O)n(-c1ccccc1)c1nncn21	-3	-0.9	i	0.8	112
CC(C)(C)C(=O)Nc1sc2c(c1-c1nc3ccccc3[nH]1)CCCC2	-9	-0.6	i	0.78	100

The results go on.
Second line of a record – PKD1 kinase inh, GALR2 ag, Insulin prom inh, Insulin prom inh cell count, HSV replic up, HSV replic up primary fold, RGS16-Gao HTS
CSC1=C(C#N)C(=O)NC(c2ccccc2O)S1 (centres undefined)
 : ·, ·, ·, ·, i, 1, 98
O=C(O)c1cc2n(n1)C(C(F)(F)F)CC(c1ccco1)N2 (centres undefined)
 : -1, -3.9, -14, 77, i, 0.9, 92
CCOc1cccc(NC(=O)C2CC(=O)N(C)C(=Nc3cccc(F)c3)S2)c1 (centres undefined)
 : -4, 0.1, -82, 184, i, 0.86, 104
COC(=O)c1ccc2c(=O)n(-c3ccccc3F)c(=S)[nH]c2c1
 : -3, ·, 100*, 23*, i, 1.1, 70
O=C(CN1CCN(S(=O)(=O)c2ccccc2F)CC1)Nc1ccccc1C(=O)c1ccccc1
 : -6, ·, ·, ·, i, 0.91, 105
C=CCO/N=C/C1=C(O)C(C(=O)OC)C(C)(C)CC1=O (centres undefined)
 : -3, ·, ·, ·, i, 0.99, 101
CN(C)c1cccc2c(S(=O)(=O)N3CCOCC3)cccc12
 : -9, -1.8, ·, ·, i, 0.88, 98
N#CCC(=O)Nc1ccc(C(=O)OCC(=O)Nc2ccccc2-c2ccccc2)cc1
 : 0, ·, ·, ·, i, 1, 92
Cn1c(=O)cc(SCC(=O)NCCCN2CCOCC2)c2ccc(Cl)cc21
 : 7, -1.2, ·, ·, i, 0.94, 98
CC(C)N(C(=O)CSc1nnc(Cc2csc(Nc3ccccc3)n2)o1)C(C)C
 : 4, ·, 0, 179, i, 0.88, 88
Cc1cccc(-c2nc(CS(=O)CC(=O)NCc3cccs3)c(C)o2)c1 (centres undefined)
 : -12, -1.1, ·, ·, i, 1, 104
CC1=CC2=NC(=O)/C(=C\c3ccc(-c4cccc(Cl)c4)o3)C(=N)N2O1
 : -5, 2.4, -33, 60, i, 0.77, 124
CN(C)c1cccc2c(S(=O)(=O)NCc3ccc(S(N)(=O)=O)cc3)cccc12
 : ·, ·, ·, ·, i, 0.71, 101
CCN(CC)C(=O)CN(c1cc2c(cc1OC)oc1ccccc12)S(=O)(=O)c1ccc(C)cc1
 : 0, -1.3, 13, 102, i, 0.92, 101
COC(=O)CSc1nsc(SCC(=O)OC)n1
 : 6, -1.3, ·, ·, i, 0.95, 100
CC(=O)OCn1nnc2ccccc2c1=O
 : -2, -1.1, -50, 104, i, 1, 33
CCOc1ccc(C=NC23CN4CN(CN(C4)C2)C3)cc1
 : 0, 0.8, -191, 141, i, 0.76, 105
CC(=O)Nc1ccc(C(=O)OCC(=O)Nc2c(F)cccc2F)cc1
 : ·, ·, ·, ·, i, 0.95, 101
O=S(N1CCCCC1)C12CC3CC(CC(C3)C1)C2 (centres undefined)
 : 4, ·, 43, 100, i, 0.92, 95
Oc1ccc(NCc2ccccc2OCc2ccccc2F)cc1
 : -1, -3.1, -63, 121, i, 0.76, 101
